Screens (PubChem BioAssay)
RN4220 kill: S. aureus RN4220 growth inhibition. OD600, 16 h. inhibition, % (no concentration beside the values). actives 0.33% (n = 330,000). AID 1259311;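 active = z-score of -3 or lower and OD600 up to 0.18 on both plates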;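 also: plate controls were untreated cells for no effect and reference antibiotic for full effect; stock transfer was 100 nL into about 80 µL; one replicate is shown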
Mtb hypoxia rep: inhibitors of hypoxia-regulated fluorescent reporter in Mycobacterium tuberculosis; fluorescence inhibition, % (no concentration beside the values); M. tuberculosis hypoxia-regulated fluorescent reporter, fluorescence; actives 0.1% (n = 300,000);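 active = 35 to 45% if threefold the growth effect, above 45% if 1.5-fold the growth effect; inactive = the rest, general growth blockers included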;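 also: wells of about 50 µL received 100 nL stock; 0% = vehicle wells and 100% = reference inhibitor wells; whole bacteria with a GFP reporter of the hypoxia response; strong numbers were not always called active; many hits fall short of the cut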
ugtP null kill: compounds lethal to S. aureus RN4220 ugtP deletion mutant. OD600 growth, 16 h; some inactives read as strong as hits. actives 0.54% (n = 330,000). growth inhibition, % (test concentration not listed);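 active = z-score under -3 and OD600 up to 0.15 on both plates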;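 also: plate controls were untreated wells for no effect and antibiotic for full effect; wells of about 80 µL received 100 nL stock; the first replicate is given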
BJeLR viability: kills HRASV12-expressing BJeLR cells; inhibition, % (concentration not given with the values); AID 1554; actives 0.17% (n = 300,000); BJeLR (HRASV12) viability, CellTiter-Glo ATP luminescence, 48 h; reference of the scale not given here;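 active = replicate mean above 50%; inconclusive = above 50% but judged a plate artefact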;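 also: 50 nL library stock added to about 25 µL; numbers are from one replicate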
PrP 5UTR inh: inhibition of PrP 5' UTR reporter expression | cell-based PrP 5' UTR mRNA reporter, plate reader | inhibition, % (test concentration not listed) | actives 0.35% (n = 340,000);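 active = every replicate at 50% or more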;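 also: 0 = median of the neutral control wells; tested in H4 reporter cells; numbers are from one replicate; inactives centre near -14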
Autofluor counter: compound fluorescence in toxin protease inhibitor counterscreen; compound autofluorescence counterscreen, microsphere flow cytometry; hits give high values; fluorescence intensity (test concentration not listed); actives 3.1% (n = 360,000); AID 624483;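 active = at least 3 SD above the mean of all compounds, about 16000 in these data; inconclusive = too few beads counted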;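 also: 100 nL of 1 mM stock went into each well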
Mtb hypoxia rep growth: also measured in Mtb hypoxia rep; calls as there; growth inhibition, %; measured here: M. tuberculosis growth (absorbance);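 0% = vehicle and 100% = reference antibiotic; read after six days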
* hit, by the source's call. Compounds were not picked by outcome (roughly 4.1% active in at least one column).

For CCC(=O)/C=C1\Sc2ccccc2N1CC the results were RN4220 kill 4.7, Mtb hypoxia rep -0.3, ugtP null kill -5.0, BJeLR viability -8.8, PrP 5UTR inh -25.8, Autofluor counter 2193 and Mtb hypoxia rep growth -8.9.
CC(Cn1cnc([N+](=O)[O-])n1)=NNC(=O)c1cccnc1 was read as RN4220 kill 2.2, Mtb hypoxia rep 6.4, ugtP null kill 8.9 and Mtb hypoxia rep growth 2.0.
`CC12CCC(C(=O)N(NC(=O)c3cc(Cl)ccc3O)C1=O)C2(C)C` (configuration not stated) gave RN4220 kill 8.9, Mtb hypoxia rep 7.1, ugtP null kill 4.2, BJeLR viability -2.8, PrP 5UTR inh -5.7, Autofluor counter inconclusive and Mtb hypoxia rep growth 11.4.
`Cc1cc(OC(=O)C(c2ccccc2)c2ccccc2)c([N+](=O)[O-])c(=O)[nH]1` gave RN4220 kill 3.6, Mtb hypoxia rep 11.0, ugtP null kill 9.5, PrP 5UTR inh -35.7, Autofluor counter 2046 and Mtb hypoxia rep growth -9.4.
CC1(C)COC(Nc2cccc(Cl)c2)=N1 was read as RN4220 kill 1.0, Mtb hypoxia rep -3.7, ugtP null kill -2.6, BJeLR viability 0.0, PrP 5UTR inh -30.3, Autofluor counter 9662 and Mtb hypoxia rep growth -1.9.
Screening COc1cc(NC(C)C(=O)N2CC(C)OC(C)C2)cc(OC)c1 (configuration not stated) returned RN4220 kill 4.6, ugtP null kill 8.0, BJeLR viability 0.2, PrP 5UTR inh -19.9 and Autofluor counter 4678.
For O=S(=O)(c1ccc(Cl)c(NC(=S)N/N=C/c2ccc(O)cc2)c1)N1CCOCC1 the results were BJeLR viability 2.2, PrP 5UTR inh -2.4 and Autofluor counter 2204.
`Cc1cccnc1NC(=O)CSc1ncnc2sc(C)c(C)c12` gave BJeLR viability -1.6, PrP 5UTR inh -1.4 and Autofluor counter inconclusive.
`O=C(c1ccc2c(c1)N(Cc1ccccc1)CCS2)N1CCOCC1` gave RN4220 kill 7.2, Mtb hypoxia rep -5.6, ugtP null kill 13.5, BJeLR viability 3.9, PrP 5UTR inh -26.8 and Mtb hypoxia rep growth -11.1.
For Cc1ccc(NC(=O)CCn2cnc3cc(C)c(C)cc32)cc1 the results were RN4220 kill -4.6, Mtb hypoxia rep -12.4, ugtP null kill -4.9, BJeLR viability 3.8, PrP 5UTR inh 1.2, Autofluor counter 10548 and Mtb hypoxia rep growth 7.4.
For O=C(NCc1nc2ccccc2[nH]1)c1ccc([N+](=O)[O-])cc1 the results were RN4220 kill 4.7, Mtb hypoxia rep 5.1, ugtP null kill 1.0, BJeLR viability 1.5, PrP 5UTR inh 74.0*, Autofluor counter 4578 and Mtb hypoxia rep growth 15.5.
`COCCn1c(=S)[nH]c2cc(OC)c(OC)cc2c1=O` gave RN4220 kill 0.2, Mtb hypoxia rep 15.0, ugtP null kill 12.0, BJeLR viability 1.9, PrP 5UTR inh -16.1, Autofluor counter 5073 and Mtb hypoxia rep growth 4.2.
Screening CC(NC(=O)c1ccc2c(c1)OCCO2)C(=O)O (configuration not stated) returned RN4220 kill 4.5, Mtb hypoxia rep -1.3, ugtP null kill 6.9, BJeLR viability -8.0, PrP 5UTR inh -25.9, Autofluor counter 12522 and Mtb hypoxia rep growth -3.4.
Screening CCOC(=O)CC(=O)CSc1nccc(-c2cccnc2)n1 returned RN4220 kill -0.9, Mtb hypoxia rep 10.8, ugtP null kill 5.5, BJeLR viability 6.4, PrP 5UTR inh -15.8, Autofluor counter 6439 and Mtb hypoxia rep growth -2.0.
Screening CS(=O)(=O)N(CC(=O)Nc1cccc([N+](=O)[O-])c1)c1cccc(F)c1 returned RN4220 kill 3.8, Mtb hypoxia rep -9.7, ugtP null kill 3.1, BJeLR viability 0.5, PrP 5UTR inh -20.4, Autofluor counter 3256 and Mtb hypoxia rep growth 3.4.
Screening COC(=O)c1cc(C(=O)NCc2ccccc2)c(=O)[nH]c1C returned RN4220 kill 4.8, Mtb hypoxia rep 4.5, ugtP null kill 7.1, BJeLR viability -1.5, PrP 5UTR inh 5.2, Autofluor counter 2493 and Mtb hypoxia rep growth -2.7.
Screening Cc1cccc(C)c1NC(=O)CNC(=O)CCC(=O)c1cccs1 returned RN4220 kill 2.8, Mtb hypoxia rep -1.1, ugtP null kill -8.1, BJeLR viability 4.8, PrP 5UTR inh -20.1, Autofluor counter 2761 and Mtb hypoxia rep growth -1.5.
For COc1cccc(N2CCN(CC(=O)Nc3ccc(SC(F)F)cc3)CC2)c1 the results were RN4220 kill -0.3, Mtb hypoxia rep -0.2, ugtP null kill -1.9, BJeLR viability -0.1, PrP 5UTR inh -9.0, Autofluor counter 2197 and Mtb hypoxia rep growth -3.3.
Screening Clc1cccc(N/N=C/c2ccc(N3CCOCC3)s2)c1 returned BJeLR viability 1.5, PrP 5UTR inh -61.6 and Autofluor counter 2388.
Screening Cc1cc(NC(=O)CSc2nnc3c(C)cc4cc(C)c(C)cc4n23)no1 returned RN4220 kill 1.2, Mtb hypoxia rep 12.6, ugtP null kill -2.5, BJeLR viability -3.3, PrP 5UTR inh -17.8, Autofluor counter 10283 and Mtb hypoxia rep growth 4.6.

The closing 2 records of the section above are carried over, then new ones follow.
Screening Clc1cccc(N/N=C/c2ccc(N3CCOCC3)s2)c1 returned BJeLR viability 1.5, PrP 5UTR inh -61.6 and Autofluor counter 2388.
Screening Cc1cc(NC(=O)CSc2nnc3c(C)cc4cc(C)c(C)cc4n23)no1 returned RN4220 kill 1.2, Mtb hypoxia rep 12.6, ugtP null kill -2.5, BJeLR viability -3.3, PrP 5UTR inh -17.8, Autofluor counter 10283 and Mtb hypoxia rep growth 4.6.
Screening CCN(CC(=O)Nc1ccc(NC(C)=O)cc1)C(=O)CC1OC(=O)c2ccccc21 (configuration not stated) returned RN4220 kill 0.6, Mtb hypoxia rep 4.6, ugtP null kill 3.0, BJeLR viability 0.6, PrP 5UTR inh -3.0, Autofluor counter inconclusive and Mtb hypoxia rep growth 1.5.
`O=C(O)c1c[nH]ccc1=O` gave RN4220 kill 0.9, Mtb hypoxia rep 7.2, ugtP null kill 2.4, BJeLR viability -8.3, PrP 5UTR inh -37.9, Autofluor counter 6114 and Mtb hypoxia rep growth 9.9.
`COc1ccccc1C(=O)NC(C)c1ccccc1` (configuration not stated) gave RN4220 kill 16.5, Mtb hypoxia rep 0.4, ugtP null kill 2.2, BJeLR viability 2.8, PrP 5UTR inh -3.6, Autofluor counter 3304 and Mtb hypoxia rep growth 10.8.
Screening CCOC(CCn1c(SCc2ccc([N+](=O)[O-])cc2)nc2ccccc2c1=O)OCC returned RN4220 kill -2.3, Mtb hypoxia rep 15.6, ugtP null kill -12.4, BJeLR viability -13.6, PrP 5UTR inh -4.5, Autofluor counter 2003 and Mtb hypoxia rep growth 3.9.
For CC(C)(C)OC(=O)NCCCCCNC(=O)c1[nH]cnc1C(=O)Nc1nccs1 the results were RN4220 kill 6.5, Mtb hypoxia rep -4.2, ugtP null kill 1.6, PrP 5UTR inh -4.2, Autofluor counter 3534 and Mtb hypoxia rep growth 5.4.
For COc1ccc([N+](=O)[O-])cc1C=NNC(=O)/C(=C\c1cccs1)NC(=O)c1ccccc1 the results were RN4220 kill -3.7, Mtb hypoxia rep -6.3, ugtP null kill 3.0 and Mtb hypoxia rep growth -10.0.
O=C(Nc1ccc(F)c([N+](=O)[O-])c1)C1CCCO1 (configuration not stated) was read as RN4220 kill -0.8, Mtb hypoxia rep 6.9, ugtP null kill 3.9, BJeLR viability 2.0, PrP 5UTR inh -24.3, Autofluor counter 4413 and Mtb hypoxia rep growth 2.0.
COc1ccc(S(=O)(=O)N2CCCCCC2)cc1C(=O)Nc1ccccn1 was read as RN4220 kill 15.2, Mtb hypoxia rep -10.2, ugtP null kill -3.6, BJeLR viability 0.0, PrP 5UTR inh 6.7, Autofluor counter 6222 and Mtb hypoxia rep growth 5.9.
Cc1ccc(N(CC(=O)NC2CCCCC2)S(=O)(=O)c2c(C)noc2C)cc1 was read as RN4220 kill 0.6, Mtb hypoxia rep -9.2, ugtP null kill -1.4, BJeLR viability 4.0, PrP 5UTR inh 0.4, Autofluor counter 6250 and Mtb hypoxia rep growth 2.0.
For CCOC(=O)C1=C(C)NC(=O)NC1c1ccc(OCC(=O)Nc2ccccc2)c(OC)c1 (configuration not stated) the results were RN4220 kill 3.1, Mtb hypoxia rep -4.1, ugtP null kill 13.8, BJeLR viability 9.4, PrP 5UTR inh -1.9, Autofluor counter 6662 and Mtb hypoxia rep growth 17.4.
Screening O=C(Oc1ccc(F)c(F)c1)c1ccc2c(=O)n3c(nc2c1)CCC3 returned RN4220 kill 1.3, Mtb hypoxia rep 11.2, ugtP null kill -19.5, BJeLR viability 1.0, PrP 5UTR inh -7.6, Autofluor counter 5034 and Mtb hypoxia rep growth -2.0.
`Cc1cccc(NC(=O)COC(=O)CCc2ccccc2)c1C` gave RN4220 kill -2.1, Mtb hypoxia rep 4.3, ugtP null kill 8.2, BJeLR viability -4.0, PrP 5UTR inh -10.5, Autofluor counter 4283 and Mtb hypoxia rep growth 10.4.
CCN(CC)C(=O)CSc1ncnc2c(-c3cccs3)nsc12 was read as RN4220 kill 7.4, Mtb hypoxia rep 2.5, ugtP null kill 5.2, PrP 5UTR inh -33.2, Autofluor counter 2808 and Mtb hypoxia rep growth 5.5.
CN=c1scc(-c2ccco2)n1/N=C/c1ccc(O)c(O)c1 was read as BJeLR viability 13.3, PrP 5UTR inh -40.5 and Autofluor counter 3756.
`Cc1cc(=O)n(C)c(=O)n1CCCCCN1CCCC1` gave RN4220 kill 1.1, ugtP null kill -3.5, BJeLR viability -1.9, PrP 5UTR inh -0.9 and Autofluor counter 5769.
For O=C(Cc1cccc2ccccc12)NC(NC(=S)Nc1ccccc1Cl)C(Cl)(Cl)Cl (configuration not stated) the results were RN4220 kill -12.7, Mtb hypoxia rep 0.3, ugtP null kill -24.3, BJeLR viability 10.4, PrP 5UTR inh -11.8, Autofluor counter 10718 and Mtb hypoxia rep growth 3.8.
For CC(=O)Nc1ccc(S(=O)(=O)Nc2nc(C)nc3sc4c(c23)CCC4)cc1 the results were RN4220 kill 5.2, Mtb hypoxia rep 11.3, ugtP null kill 13.8, BJeLR viability 0.0, PrP 5UTR inh -3.3, Autofluor counter 4799 and Mtb hypoxia rep growth 9.7.
Screening CC(C)Nc1nc(Cl)nc(N(C#N)CN2C(=O)c3ccccc3S2(=O)=O)n1 returned RN4220 kill 1.7, Mtb hypoxia rep 7.8, ugtP null kill 3.8, BJeLR viability -2.3, PrP 5UTR inh -5.3, Autofluor counter inconclusive and Mtb hypoxia rep growth 9.7.
For COc1ccc(N(CC(=O)N2CCCC(C)C2)S(=O)(=O)c2c(C)nn(C)c2C)cc1 (configuration not stated) the results were RN4220 kill -9.4, Mtb hypoxia rep 5.6, ugtP null kill -2.6, BJeLR viability -1.6, PrP 5UTR inh -21.3, Autofluor counter 5850 and Mtb hypoxia rep growth 1.0.
Screening CCOC(=O)C(C)=NNC(=O)c1cccc([N+](=O)[O-])c1 returned RN4220 kill 3.0, Mtb hypoxia rep 11.8, ugtP null kill 6.5 and Mtb hypoxia rep growth 11.1.
For O=C(C[n+]1ccccc1)c1ccc(NC(=O)c2ccccc2)cc1 the results were RN4220 kill 1.1, Mtb hypoxia rep -7.7, ugtP null kill 1.5, BJeLR viability -5.3, PrP 5UTR inh -3.5, Autofluor counter 2949 and Mtb hypoxia rep growth 3.6.
Screening CN(C)CCCNC1CS(=O)(=O)CC1O (configuration not stated) returned RN4220 kill -4.5, Mtb hypoxia rep 2.7, ugtP null kill 6.2, BJeLR viability -3.0, PrP 5UTR inh -10.0, Autofluor counter 2297 and Mtb hypoxia rep growth -4.2.
Screening O=C(O)CC(NS(=O)(=O)c1cccc2nsnc12)c1ccc(F)cc1 (configuration not stated) returned RN4220 kill 5.6, Mtb hypoxia rep 7.8, ugtP null kill 9.1, BJeLR viability -2.5, PrP 5UTR inh -22.9, Autofluor counter 3150 and Mtb hypoxia rep growth 4.8.
`Cc1ccc(S(=O)(=O)NNC(=O)CCC(=O)Nc2ccccc2Cl)cc1` gave RN4220 kill 4.7, Mtb hypoxia rep 4.9, ugtP null kill 4.7, PrP 5UTR inh -13.0, Autofluor counter 5856 and Mtb hypoxia rep growth 3.9.
COc1ccc(CCNC(=O)CN2CCN(c3cccc(C(F)(F)F)c3)CC2)cc1 was read as RN4220 kill 1.2, Mtb hypoxia rep 8.2, ugtP null kill -8.5, BJeLR viability 2.7, PrP 5UTR inh -8.2, Autofluor counter 4442 and Mtb hypoxia rep growth 8.8.
